# High-throughput results from PubChem.
# H5N1 CPE = MDCK cell protection from H5N1 avian flu | cytopathic effect, luminescence, 72 h; active compounds read high; no value below 0 was filed and about half of the inactive calls have no number; reference of the scale not given here | inhibition, % at 50 µM | 96,000 compounds, 0.07% hits; in the data active means inhibition above about 25%
# * marks the source's active call; other numbers are inactive results; i = inactive. Some of the compounds tested; the hit share may differ from the screen's.
SMILES,H5N1 CPE
CCOc1ccc2[nH]cc(C(=O)N3CCN(CC)CC3)c(=O)c2c1,0.8
COc1ccc(-c2noc(CSc3nnc(-c4ccccc4)n3C)n2)cc1,1.2
COc1ccccc1NC(=O)c1ccc(NS(C)(=O)=O)cc1,2.2
Cc1ccccc1NC(=O)Cn1c(C)nc2ccc(N)cc2c1=O,i
CC(=O)N1CCN(C(=O)CSc2nc3c(cnn3-c3ccccc3)c(=O)[nH]2)CC1,0.7
O=C(NC1(C(F)(F)F)NC(=O)N(Cc2cccnc2)C1=O)c1ccncc1 (configuration not stated),0.2
CCOC(=O)/C(N=O)=C(\O)C1CCN(C(=O)OCC)CC1,0.6
CCOc1ccc(CN(C(=O)c2oc3cc(C)ccc3c2C)C2CCS(=O)(=O)C2)cc1 (configuration not stated),0.3
Cc1nc2ccccn2c1/C(O)=C1\C(=O)C(=O)N(CCN(C)C)C1c1cccnc1 (configuration not stated),0.1
CCN1C(=O)c2cccc3c(NC(=O)c4ccc(S(=O)(=O)N(C)C)cc4)ccc1c23,i
Cc1ncc(S(=O)(=O)c2ccccc2)c(-c2ccccc2)n1,0.6
Cc1ccc(NC(=O)c2cc(S(=O)(=O)N3CCCCC3)ccc2N2CCOCC2)cc1F,i
Clc1ccc(-c2nnsc2SCc2ccccc2)cc1,i
CCOC(=O)c1[nH]c(C)c(C(=O)NCc2ccc(Cl)cc2)c1C,i
Cc1ccnc(NC(=O)c2ccccc2[N+](=O)[O-])c1,2.7
O=C1CC(c2ccco2)Cc2nc(N3CCN(Cc4ccc5c(c4)OCO5)CC3)ncc21 (configuration not stated),i
O=C(Cn1ncc2c1-c1ccccc1OC2)Nc1ccc(S(=O)(=O)N2CCCCC2)cc1,i
O=C(Cn1cnc2c(cnn2-c2ccc(F)cc2)c1=O)NCCc1ccccc1,i
CCC(C)n1c(-c2cccs2)nc2nc3ccccc3nc21 (configuration not stated),i
O=Cc1cn(-c2ccccc2)nc1-c1cc2c(ccc3ccccc32)oc1=O,i
COc1cc(C(=O)NCCc2ccc3c(c2)OCCO3)ccc1OCC(=O)N1CCOCC1,i
O=C(COc1ccccc1)Nc1ccc(S(=O)(=O)N2CCOCC2)cc1,i
O=C(Cc1ccc(F)cc1)N(c1ccccc1)C1C=CS(=O)(=O)C1 (configuration not stated),0.1
CN1CC(=O)N(C)c2ncn(Cc3ccccc3)c2C1=O,0.1
COc1ccc(S(=O)(=O)N2CCN(C)CC2)cc1C,1.9
CCS(=O)(=O)C(=C1NCCO1)S(=O)(=O)CC,i
CC(C(=O)NC(=O)NCc1ccccc1)N1C(=O)c2ccccc2C1=O (configuration not stated),i
Cc1cc2ncn(S(=O)(=O)N(C)C)c2cc1C,0.4
CC(C)CNC(=O)[C@H](Cc1ccccc1)NC(=O)c1ccco1,0.8
Cc1ccc(-c2cn(S(=O)(=O)c3cccc4nsnc34)nc2N)cc1,0.7
COc1ccc(CNc2cc(C)nc3ncnn23)c(OC)c1,0.6
CCc1nc(SCC(=O)Nc2sc(C)c(C)c2C(=O)OC)c2ccccc2n1,i
COc1ccc(N2C(=O)C3ON(C4SC(=S)N(C)C4(C)C)C(c4ccc([N+](=O)[O-])cc4)C3C2=O)cc1 (configuration not stated),0.8
CC1CCN(C(=O)c2ccc3c(c2)OCCO3)CC1,0.1
COc1cccc(CNC(=O)CCNC(=O)Cn2ccc3ccccc3c2=O)c1,i
COc1ccc(/C=N/S(=O)(=O)c2cccs2)cc1,i
O=C(CSc1n[nH]c(-c2ccncc2)n1)Nc1ccccn1,i
Cc1ccc(C)c(N(C(=O)Cn2nnc(-c3cccs3)n2)C(C(=O)NC2CCCC2)c2ccncc2)c1 (configuration not stated),i
Cc1cc(NC(=O)CSc2nc3c(c(=O)n2-c2ccccc2)SC(C)C3)no1 (configuration not stated),i
Cc1cc(/C=C(/C#N)c2cccc(F)c2)c(C)n1-c1cccnc1,1.8
CCn1nc(NC(=O)c2ccncc2)c2cc3cccc(C)c3nc21,2.0
Cn1c(=O)[nH]c(=O)c2c1nc(N1CCCCCC1)n2Cc1cccc2ccccc12,i
Cc1ccc(C(=O)Nc2ccc(O)cc2C(=O)O)cc1C,i
Cc1cc(-c2ccco2)n(CC(=O)O)n1,3.3
Cn1c(CN2CCOCC2)nc2cc(NC(=O)c3ccc(F)cc3)ccc21,i
O=C1NC(c2ccncc2)Nc2sc3c(c21)CCCC3 (configuration not stated),i
CCN(CC)CCn1c(NC(=O)c2ccc(Cl)cc2)nc2ccccc21,0.1
O=C(c1ccc(Cl)cc1)c1ccccc1C(=O)N1CCOCC1,0.3
Cc1ccc(C)c(C(=O)CN2C(=O)c3ccccc3S2(=O)=O)c1,i
CSc1nnc2c3c4c(sc3nc(-n3nc(C)cc3C)n12)COC(C)(C)C4,0.4

# Continuation.
SMILES,H5N1 CPE
Cc1ccc(-c2cc(C(=O)N3N=C(C(F)F)CC3(O)C(F)F)c3ccccc3n2)cc1C (configuration not stated),1.6
O=C(c1csc2ccccc12)N1CCCCCC1,0.2
c1ccc2c(c1)Cn1nnnc1-2,0.1
O=c1c2ccccc2c2ccccc2c(=O)n1Cc1cccnc1,0.8
O=c1c2ccccc2nc(-c2cccs2)n1-c1cnccn1,4.5
Oc1ccc(/C=N/Nc2nccnc2Cl)cc1,i
CCSc1nc(O)c(CC)c(=O)n1C(C)CC (configuration not stated),i
CCOC(=O)Cc1cc(=O)n2[nH]c(C)cc2n1,i
Cc1ccc(C(=O)N2c3ccccc3N(Cc3ccccc3)C(=O)C2(C)C)cc1,i
CCOC(=O)c1sc(Nc2nc3c(OC)cccc3s2)nc1C,0.8
O=C(N[C@@H](Cc1ccccc1)C(=O)NC1CCCCC1)c1ccco1,1.4
Cc1ccc(S(=O)(=O)NCCCCCC(=O)NC(C)(C)CO)cc1,0.7
O=C1CC(c2ccc(F)c(Br)c2)C2=C(CCCC2=O)N1 (configuration not stated),1.5
Clc1cnc(Oc2ccc(Oc3ncc(Cl)cc3Cl)cc2)c(Cl)c1,i
COc1ccc(CNC(=O)c2ccc(=O)oc2)cc1OC,0.4
COc1cc2ncnc(NCc3ccccc3C)c2cc1OC,i
O=C(CC12CC3CC(CC(C3)C1)C2)NCC(=O)N1CCc2ccccc2C1,2.5
Cc1cc(NC(=O)CSc2nnc(-c3ccc(Br)o3)n2Cc2ccccc2)no1,0.3
CCCn1c(SCC(=O)Nc2nc3c(s2)CCCC3)nc2c1c(=O)n(C)c(=O)n2C,0.7
O=C(COc1ccc2ccccc2c1)N1CCN(C2CCN(Cc3ccccc3)CC2)CC1,i
CC(=O)c1ccc(OCCCC(=O)NC2=NCCS2)cc1,i
CCOC(=O)c1ccccc1Nc1cc(C)nc2nc(C)nn12,0.8
Cc1nn(-c2ccc(F)cc2)c2sc(C(=O)N3CCCCCC3)cc12,i
CCn1cc(C(=O)Nc2ccc(-n3cnnn3)c(OC)c2)c(=O)c2ccc(C)nc21,1.1
Cc1cc(/C=c2/sc3nc4ccccc4n3c2=O)c(C)n1-c1ccccn1,i
Cc1ccc(C(=O)NC2CC(C)(C)NC(C)(C)C2)c(C)c1,i
Cc1cc(NC(=O)CN2CCN(c3ncccn3)CC2)no1,0.9
CCOc1ccc(OCC)c(-c2c(=O)n(OCc3ccccc3C(=O)OC)c3ccccc3[n+]2[O-])c1,i
O=C(CNC(=O)c1cc2ccccc2o1)NCc1cccs1,i
COc1ccc(C(=O)N2CCC(n3c(C)nc4cc(F)ccc43)CC2)cc1OC,0.3
CCCCNC(=O)CSc1nc2ccccc2c(=O)n1CCNC(C)=O,0.7
O=C(Nc1ccc(F)cc1F)c1cccnc1,0.4
C/C(=N/N1CCN(c2ccccn2)CC1)c1ccc([N+](=O)[O-])cc1,i
COc1ccc(CCNC(=O)CCCn2c(SCC#N)nc3ccccc3c2=O)cc1OC,i
Cc1ccccc1C(=O)NC(=S)Nc1sc2c(c1C#N)CCCC2,0.5
Cc1cc(=O)c2c(C)nn(-c3ccccc3)c2[nH]1,0.2
COCCNS(=O)(=O)c1ccc(-c2ccc(C)cc2)cc1,0.5
O=C(NCc1cccnc1)c1noc2c1CCCCC2,i
Cc1ccc(C(=O)N(NC2=NS(=O)(=O)c3ccccc32)S(=O)(=O)c2ccc(C)cc2)cc1,i
Cc1ccc(C(O)c2nc3ccccc3n2C(C)C)cc1 (configuration not stated),0.2
C=CCn1c(N)cc(=O)nc1SCC(=O)Nc1ccccc1,i
O=P(CCCCCCCCCP(=O)(c1ccccc1)c1ccccc1)(c1ccccc1)c1ccccc1,i
CS(=O)(=O)N(CCc1ccccc1)CC(=O)N1CCN(Cc2ccc3c(c2)OCO3)CC1,0.3
O=C(NC1CCN(C(=O)N2c3ccccc3Sc3ccccc32)CC1)c1ccco1,i
CCOC(=O)c1ccc2c(c1)nc(SCC(=O)c1cc3ccccc3o1)n2CC,3.1
CC(=O)c1ccc2cccc3c2c1N=CN3C,i
CC1=C/C(=N\OC(=O)/C=C/c2ccccc2)C(C)=CC1=O,i
Cc1cc(NS(=O)(=O)c2ccc(OCCNS(C)(=O)=O)cc2)no1,i
CC(C)Cn1c(N)c(C(=O)NCc2cccs2)c2nc3ccccc3nc21,7.4
CN(C)CCCNc1c(C(=O)O)cnc2c1cnn2C,i

# Random excerpt: seven compounds from above.
SMILES,H5N1 CPE
CS(=O)(=O)N(CCc1ccccc1)CC(=O)N1CCN(Cc2ccc3c(c2)OCO3)CC1,0.3
C=CCn1c(N)cc(=O)nc1SCC(=O)Nc1ccccc1,i
O=P(CCCCCCCCCP(=O)(c1ccccc1)c1ccccc1)(c1ccccc1)c1ccccc1,i
CN(C)CCCNc1c(C(=O)O)cnc2c1cnn2C,i
CC(=O)c1ccc2cccc3c2c1N=CN3C,i
CC(C)Cn1c(N)c(C(=O)NCc2cccs2)c2nc3ccccc3nc21,7.4
O=C(NC1CCN(C(=O)N2c3ccccc3Sc3ccccc32)CC1)c1ccco1,i

# The list goes on.
SMILES,H5N1 CPE
CC(C)(C)c1cc(NC(=O)COC(=O)c2ccc3c(=O)n4c(nc3c2)CCC4)n(-c2ccccc2)n1,0.3
Cc1nn(CCOc2ccccc2)c(=O)n1-c1ccccc1,i
O=C(NC1CCCCCC1)c1cc(S(=O)(=O)N2CCOCC2)ccc1N1CCCCC1,1.5
CCOC(=O)N1CCC(NC(=O)C2CCCN(S(=O)(=O)c3ccc4c(c3)oc(=O)n4C)C2)CC1 (configuration not stated),1.5
COc1ccc(C2c3c4c(n(C)c3CCN2C)CCN(C)C4c2ccc(OC)cc2)cc1 (configuration not stated),4.9
Cc1ccc(NC(=O)CCC(=O)NNS(=O)(=O)c2ccccc2)c(C)c1,i
O=C(CN(C(=O)c1cc2c(s1)CCC2)C1CCCC1)NCc1cccs1,0.5
Cc1ccc2c(NC(=O)C3CC3)c(C)ccc2n1,1.7
CCOCN(C(=O)Cn1c(COC)nc2ccccc21)c1c(C)cccc1CC,0.4
COc1cccc(-n2c(C)nnc2SCC(=O)Nc2ccccc2N2CCOCC2)c1,0.5

# Part of the list above in order of length of the SMILES, highest first.
SMILES,H5N1 CPE
O=C(NC1CCCCCC1)c1cc(S(=O)(=O)N2CCOCC2)ccc1N1CCCCC1,1.5
Cc1ccc(NC(=O)CCC(=O)NNS(=O)(=O)c2ccccc2)c(C)c1,i
O=C(CN(C(=O)c1cc2c(s1)CCC2)C1CCCC1)NCc1cccs1,0.5

# Following part:
SMILES,H5N1 CPE
O=C(O)CCNS(=O)(=O)c1ccc2c(c1)Cc1ccccc1-2,i
CCCCNC(=O)CCCn1c(=O)[nH]c2ccc(Br)cc2c1=O,1.2
COc1cccc(NC(=O)C2CCCN(S(=O)(=O)c3cccc4cccnc34)C2)c1 (configuration not stated),0.7
Cc1ccc(NC(=O)NCCc2ccc(S(N)(=O)=O)cc2)cc1,0.7
COc1ccc(S(=O)(=O)N(CCc2ccccc2)CC(=O)O)cc1C,i
O=C(O)CCC(=O)CCC(=O)c1ccc(Cl)cc1,0.2
O=C(Nc1ccccc1F)c1ccc(-n2cncn2)nc1,0.4
COC(=O)c1cc(OC)c(OC)cc1NC(=O)CSc1ccccc1,2.9
CCOC(=O)c1c(C)n(C)c2ccc(O)c(CN(CC)CC)c12,0.5
Cc1ccccc1NC(=O)C(C)c1ccc(-c2ccccc2)c(F)c1 (configuration not stated),1.9
CCOC(=O)N1CCN(S(=O)(=O)c2ccc(OCC)cc2)CC1,1.4
Cn1c(=O)[nH]c(=O)c2c1nc(Br)n2CCSc1ncccn1,1.3
S=c1nc(-c2ccccc2)[nH]n1-c1ccccc1,0.1
O=C(COC(=O)C1c2ccccc2Oc2ccccc21)NC1CCS(=O)(=O)C1 (configuration not stated),0.8
COc1ccc(N(C(=O)Nc2ccc(Cl)cc2)C2=NCCC2)cc1,i
Cc1cc2cc(CNC(=O)C3CC3)ccc2n1C,i
O=C1[C@@H]2[C@H](C(=O)N1Cc1cccnc1)[C@H]1C=C[C@@H]2C1,i
COc1ccc(N2CCN(S(=O)(=O)c3cccs3)CC2)cc1,i
Cc1ccc(NC(=O)c2c(O)c3ccccc3n(C)c2=O)nc1,i
Cc1ccc(S(=O)(=O)Nn2c(C)nnc2-n2nc(C)cc2C)cc1,0.1
Fc1ccc(Cn2nnnc2CN2CCN(C3CCCC3)CC2)cc1,1.5
CCCc1cc(C(=O)Nc2sc(C)c(CC)c2C#N)no1,i
CCOC(=O)C(NC(=O)c1ccccc1)=C1CCCCC1,i
CCNCc1cc2cc(C)ccc2[nH]c1=O,i
C/C(Cn1nc([N+](=O)[O-])cc1C)=N\NC(=O)c1ccc(O)cc1O,0.2
Cc1cc(N2CCCC2)nc(-c2ccccc2O)n1,0.9
O=C(c1ccc(Cl)s1)N1CCN(c2nc3ccccc3s2)CC1,1.2
Cc1noc(N)c1C(=O)Nc1ccc(F)cc1,0.3
CCCn1nc(C(=O)Nc2cc(C(=O)OC)ccc2C)c2ccccc2c1=O,3.2
COc1ccccc1N(CC(=O)NC1CCCCC1)C(=O)CCC(=O)Nc1ccccn1,0.9

# Single entries from the entries so far:
# In H5N1 CPE, Cc1noc(N)c1C(=O)Nc1ccc(F)cc1 shows 0.3
# In H5N1 CPE, O=C(c1ccc(Cl)s1)N1CCN(c2nc3ccccc3s2)CC1 shows 1.2
# In H5N1 CPE, C/C(Cn1nc([N+](=O)[O-])cc1C)=N\NC(=O)c1ccc(O)cc1O shows 0.2
# In H5N1 CPE, Fc1ccc(Cn2nnnc2CN2CCN(C3CCCC3)CC2)cc1 shows 1.5
